# TRPML1 blocker: inhibitors of human TRPML1 channel. 0.02% of 390,000 active. AID 624415. Q9GZU1. activity change, negative = inhibition, % (no concentration beside the values). TRPML1-inducible cells, Ca2+ dye fluorescence, FDSS; stronger effect = lower value; inhibition of EC80 agonist-evoked calcium signal; in the data active means activity change below about -50%; inconclusive means about -30% to -50%; inactive means above about -30%;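 also: stimulus is agonist 54-4 at its EC80 concentration; % is scaled to controls: 0 for no effect and ±100 for the full control effect; compound concentration not given in the record; the text of the record puts the active cut at -80%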
# Target sequence (Q9GZU1 whole entry, looked up): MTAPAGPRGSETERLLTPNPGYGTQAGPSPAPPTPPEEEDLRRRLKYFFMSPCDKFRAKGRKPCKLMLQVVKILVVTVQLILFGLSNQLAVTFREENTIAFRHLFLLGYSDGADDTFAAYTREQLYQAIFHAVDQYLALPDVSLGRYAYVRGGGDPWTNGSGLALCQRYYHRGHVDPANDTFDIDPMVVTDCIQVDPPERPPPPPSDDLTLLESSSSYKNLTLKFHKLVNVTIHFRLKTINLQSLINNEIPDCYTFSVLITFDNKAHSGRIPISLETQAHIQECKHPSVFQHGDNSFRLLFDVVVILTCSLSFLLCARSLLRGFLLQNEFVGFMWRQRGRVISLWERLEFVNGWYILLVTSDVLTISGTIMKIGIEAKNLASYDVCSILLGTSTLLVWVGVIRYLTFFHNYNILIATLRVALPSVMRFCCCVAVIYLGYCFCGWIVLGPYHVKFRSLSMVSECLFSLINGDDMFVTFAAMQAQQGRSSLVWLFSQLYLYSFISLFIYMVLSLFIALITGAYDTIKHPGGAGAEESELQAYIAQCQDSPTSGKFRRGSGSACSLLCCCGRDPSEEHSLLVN
#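 Calcium fluorescence in TRPML1-DL cells induced overnight with Tet: a 110 s read after compound pin addition, then a 110 s antagonist read after challenge with 54-4 at 4 uM final (EC80).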
# ClpP mod: qHTS Assay for Activators of ClpP; purified B. subtilis ClpP, FRET peptide cleavage, 20 min; Potency, µM (highest dose often 57.5 µM), without a hit: at the highest dose activity change, negative = active; 1.9% of 340,000 active; AID 651965, 2013; active = well fitted falling curve with a large enough effect; inconclusive = small, poorly fitted or top-dose-only effect; inactive = no such curve, though single readings can be large or run the other way; also: potency is read from the fitted curve at half-maximal effect; the source files actives as falling curves though it sought activators and does not explain the sign; nearly all actives have a fitted effect of over 65% in size; many hits overshoot -100%
# Target sequence (P80244 whole entry, looked up): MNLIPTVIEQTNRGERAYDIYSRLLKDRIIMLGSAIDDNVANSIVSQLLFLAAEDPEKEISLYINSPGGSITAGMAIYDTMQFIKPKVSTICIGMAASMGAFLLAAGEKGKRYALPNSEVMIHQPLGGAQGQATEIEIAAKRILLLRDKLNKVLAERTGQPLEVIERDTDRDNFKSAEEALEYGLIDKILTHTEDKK
#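 FRET quenching reversal measured ClpP activation: 10 microg/mL B. subtilis ClpP at pH 8 with the FRET-FV decapeptide, read at 430 nm after 320 nm excitation. The 20-min minus 0-min signal was scaled between DMSO/no-enzyme wells and ADEP (5.8 microM final).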
# Menin MLL FP FL: displaces fluorescein MLL peptide from human menin; Fluorescence polarization, fluorescein-MLL peptide displacement from menin; FP activity change, % at 61.4 µM; 290,000 tested, under 10 active; AID 1766; inconclusive = falling polarisation curve, or a change in total fluorescence; inactive = total fluorescence flat and polarisation flat or rising; no compound was filed as active; the % refers to the polarisation; negative = inhibition;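 also: % of control where 0% means no effect; inhibitors lower the polarisation; unlabelled MLL peptide was the positive control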
# TRPML1 ag: agonists of human TRPML1 channel | Q9GZU1 | 0.12% of 410,000 active | TRPML1-expressing cells, Ca2+ dye fluorescence, FDSS; host cell line not named in the record; reference of the full effect not given here | activation, % (test concentration not listed) | AID 624414; in the data active = activation above about 50%; inconclusive = about 30% to 50%; inactive = below about 30%; also: 0% is about no effect; the text of the record puts the active cut at 80%
#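 TRPML1-DL cells, Tet-induced overnight (~16 h, 37 degrees C), loaded 45-90 min at room temperature with Ca8 no-wash calcium dye plus quencher. FDSS fluorescence: 10 s baseline, compound pin-transfer, 110 s agonist read, then EC80 54-4 (4uM final) and 110 s antagonist read.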
# gsp agonist: gsp mutant agonism. gsp mutant cells, cAMP HTRF, 30 min; control for the full effect not named in the record. Potency, µM (doses to about 76.9 µM), for inactives: top-dose activation (cAMP increase), most hits filed as activators. 0.13% of 340,000 active. AID 624287; active = well fitted activation curve with a large enough effect; inconclusive = small, poorly fitted or top-dose-only effect, or another doubt; inactive = no such curve, though single readings can be large or run the other way; cell line not stated here;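 also: phosphodiesterase inhibitor Ro 20-1724 added with compounds to block cAMP breakdown; potency is read from the fitted curve at half-maximal effect; nearly all actives have a fitted effect of over 60% in size; about a fifth of the inactives were tested at one dose only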
#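 Cells in DMEM/10% FBS with G418 were pretreated with compounds in DMSO plus […] (300 uM stock) for 30 min at 37C. cAMP was measured by HTRF (cAMP-d2 plus anti-cAMP antibody-K) after 30 min at room temperature.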
# gsp antagonist: gsp mutant antagonism. 0.4% of 340,000 active. gsp-mutant cells, cAMP HTRF, 30 min; control for the full effect not named in the record. Potency, µM (series often up to 76.9 µM), for the others: at the top dose activity change, negative = inhibition, usual class: inhibitors; active = falling curve of any shape with a large fitted effect; inconclusive = falling curve, mostly with a smaller effect; inactive = flat or rising curve; cell line not stated here;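 also: intracellular cAMP measured with PDE inhibitor Ro 20-1724 present during compound exposure; potency is read from the fitted curve at half-maximal effect; % is scaled to controls: 0 for no effect and ±100 for the full control effect; nearly all actives have a fitted effect of over 65% in size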
#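 HTRF cAMP read-out (cAMP-d2 plus anti-cAMP antibody-K in lysis buffer, 30 min RT). Before lysis, cells are exposed to compounds with […] for 30 min at 37C in DPBS containing Ca/Mg, BSA and Tween 20.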
# * marks the source's active call; other numbers are inactive results; ? = inconclusive; · = not tested or not shown; & = joins results of further samples; [ ] = dose if it differs, or a comment.
mol | gsp antagonist | TRPML1 ag | Menin MLL FP FL | TRPML1 blocker | ClpP mod | gsp agonist
Cc1[nH]c(C)c(S(=O)(=O)NCc2ccc(OC(C)C)cc2)c1C(=O)N1CCCC1 | -1% | -0.1 | · | 27 | -2.8% | -33%[inhibitor]
Cc1nn(Cc2ccccc2)c(C)c1CCC(=O)O | -3% | -0.3 | 3.6 | 10 | -0.3% | -2%
CCCCOc1ccc(C(=O)NCCS(=O)(=O)N2CCN(c3ccc(F)cc3)CC2)cc1 | · | 0.7 | · | -4 | -1.5% | ·
Cc1ccc(OCC(=O)NNC(=O)c2cc3ccccc3o2)cc1C | 6% | 0.2 | 1.9 | -2 | -11% | ?
CC(C)(C)OC(=O)N1CCC(c2c(C(=O)O)cnn2-c2ccccc2)CC1 | -12% | 2.4 | 1.1 | -14 | 2.3% | ?
COc1cccc2c(=O)n(CC(=O)NC3CCCC3)ccc12 | 6% | -0.8 | -2.6 | -11 | 1.2% | ?
O=C(NC1CC2CCCC(C1)N2C(=O)Nc1ccccc1)c1ccncc1 (stereo unspecified) | -14% | -0.8 | -0.7 | -8 | 0.3% | -5%
CCCCn1c(N)c(N(CC(C)C)C(=O)c2cccc(S(=O)(=O)N3CC(C)OC(C)C3)c2)c(=O)[nH]c1=O (stereo unspecified) | 5% | 0.2 | · | -8 | · | 23%[15.4 µM]
CCCOC(=O)/C(=C\C=C\c1ccco1)NC(=O)c1ccccc1 | -6% | 3.5 | ? | -12 | · | -12%[15.4 µM]
CCC1(c2ccc(F)cc2)NC(=O)N(CC(=O)c2cc(C)n(C3CC3)c2C)C1=O (stereo unspecified) | 9% | 9.3 | · | 6 | -0.6% | 12%[15.4 µM]
Cc1ccc(-c2nn3c(C)nnc3c3ccccc23)cc1S(=O)(=O)NCc1ccccc1 | 7% | 1.5 | -0.2 | 19 | -4.4% | -89%[inhibitor]
Cc1ccc(C(C(=O)NCc2ccco2)N(C(=O)CNC(=O)c2cccs2)c2c(C)cc(C)cc2C)cc1 (stereo unspecified) | 7% | 0.3 | -2.0 | 6 | -2.4% | 19%
O=C(Nc1ccc(S(=O)(=O)N2CCCC2)cc1)N1c2ccccc2Sc2ccccc21 | 3% | -0.1 | 3.0 | -9 | -0.1% | -44%
Cc1c(C(=O)N2CCC(Cc3ccccc3)CC2)sc2ncnc(N3CCC(C)CC3)c12 | 8% | -0.5 | -0.3 | -3 | 0.9% | 2%
C=C(C)CSc1nnc([C@@H]2CCCN2C(=O)OC(C)(C)C)o1 | 7% | 0.2 | -3.0 | -7 | -1.9% | 3%
Cc1cc(NC(=O)c2ccccc2Oc2ccccc2)no1 | -14% | 2.6 | -1.7 | -6 | -0.4% | 14%
CC(C)C(=O)Nc1nnc(NC(=S)Nc2ccccc2)s1 | -1% | 1.0 | 0.0 | -11 | · | -1%[15.4 µM]
Cc1ccccc1SCC(=O)Nc1cc(S(=O)(=O)N2CCOCC2)ccc1N1CCOCC1 | -5% | 2.8 | -2.1 | 34 | · | -5%[15.4 µM]
c1ccc(-c2noc(CN3CCN(C(c4ccccc4)c4ccccc4)CC3)n2)cc1 | -6% | 0.6 | 3.6 | -8 | 0.3% | -1%
CC(=O)c1ccc(NC(=O)C(C)N2CCN(C/C=C/c3ccccc3)CC2)cc1 (stereo unspecified) | · | 0.7 | -0.5 | -4 | · | -7%[15.4 µM]
O=C1CC(=O)Nc2cc(S(=O)(=O)N3CCOc4ccc(Cl)cc43)ccc2N1 | -7% | 0.4&0.5 | 2.1 | -3&-24 | 0.4%&0.7% | ?
CCOc1ccccc1CNC(=O)c1ccc2nc(CCc3ccccc3)oc2c1 | · | 0.7 | · | -12 | -0.6% | ·
O=C1CCCN1CCNC(=S)Nc1ccccc1 | 4% | 0.5 | 1.1 | -4 | -1.5% | ?
Cc1cccc(C(=O)NNc2ncnc3c2cnn3C)c1 | 4% | -0.4 | 1.3 | -4 | · | 3%[15.4 µM]
O=c1oc(-c2ccccc2)cc(Cl)c1Cl | -16% | 0.3 | -13 | -9 | -1.3% | 8%[15.4 µM]
O=S(=O)(c1ccccc1)N1CCN(c2ncccn2)CC1 | 2% | -0.4 | 4.8 | -13 | -4.4% | 4%
Cc1ccc(C(=O)N(CN2CCCC2=O)c2ccccc2)cc1C | -16% | -0.1 | -1.3 | -14 | -2.4% | 9%
O=C(N/N=C/c1ccco1)c1cnccn1 | 7% | -0.2 | 3.4 | -4 | 0.2% | 25%
CCOC(=O)c1ccc(NS(=O)(=O)c2cc(C)ccc2OC)cc1 | -29% | 1.4 | 0.5 | 2 | -0.3% | -11%
O=C(/C=C/c1cccc2ccccc12)NCCC1=CCCCC1 | -8% | 2.0 | 5.6 | 25 | ? | -7%

# Limited to Menin MLL FP FL, for some of the entries so far:
Molecule | Menin MLL FP FL
Cc1ccc(C(=O)N(CN2CCCC2=O)c2ccccc2)cc1C | -1.3
O=C(N/N=C/c1ccco1)c1cnccn1 | 3.4
CCOC(=O)c1ccc(NS(=O)(=O)c2cc(C)ccc2OC)cc1 | 0.5
O=C(/C=C/c1cccc2ccccc12)NCCC1=CCCCC1 | 5.6

# Later entries.
mol | gsp antagonist | TRPML1 ag | Menin MLL FP FL | TRPML1 blocker | ClpP mod | gsp agonist
C=CCn1c2ccccc2c2nnc(SCC(=O)Nc3c(C)n(C)n(-c4ccccc4)c3=O)nc21 | 1% | -0.6 | 12 | -26 | 0.5% | ?
CCCCNC(=O)/C(C#N)=C/c1ccc(F)cc1F | 11µM* | 0.0 | -1.0 | 5 | · | -1%[15.4 µM]
CN(CC(=O)Nc1ccccc1)CC(=O)Nc1ccccc1Cl | -3% | · | 0.8 | · | 0.7% | 25%
CCOC(=O)C1(Cc2cccc(OC)c2)CCCN(C(=O)CSC)C1 (stereo unspecified) | -5% | -1.0 | · | -8 | · | 0%
CCOc1cc(NC(=S)NCc2ccco2)c(OCC)cc1NC(C)=O | -1% | 0.3 | 0.4 | 6 | -1.3% | 12%
CN(c1ccccc1)S(=O)(=O)c1cccc(C(=O)Nc2ccc(N3CCOCC3)cc2)c1 | ? | 0.2 | · | -2 | -0.9% | 10%[15.4 µM]
O=C(N/N=C/c1cccs1)C1COc2ccccc2O1 (stereo unspecified) | -1% | 0.2 | 2.7 | -5 | -2.5% | 0%
COC(=O)c1ccc2nc(-c3ccco3)c(Cc3cccc(F)c3)n2c1 | · | -0.4 | · | 6 | 3.9% | ·
CCCN(C(=O)c1cn(C)c(=O)c2cc(OC)c(OC)cc12)c1ccc(CC)cc1 | · | -0.2 | · | 17 | -2.0% | ·
COc1cc(OC)cc(-c2sc3ccc(OC)cc3c2-c2ccc(OCCN3CCCCC3)cc2)c1 | 0% | -0.3 | · | -2 | ? | ·
O=C(Oc1ccc2ccc(=O)oc2c1)c1cccs1 | 12% | 2.3 | -0.9 | 2 | 175% | -9%
O=C(COC(=O)C1CCC(N2C(=O)C3C4CCC(C4)C3C2=O)CC1)c1ccc(F)cc1 (stereo unspecified) | -2% | -0.4 | 3.6 | 7 | · | -20%
O=C(OCC(=O)N1CCCC1)c1ccc(NS(=O)(=O)c2cccs2)cc1O | -55% | 0.2 | 5.4 | -11 | -1.3% | 30%[15.4 µM]
CN(C)/C=C(\C#N)C(=O)c1cccnc1Oc1ccc(F)cc1F | 8% | 0.5 | -2.7 | -6 | -0.2% | 30%
COc1ccc(CCNC(=O)C2CC3Cn4c(nc5cc6ccccc6cc54)C3N2C)cc1 (stereo unspecified) | -18% | -1.1 | 0.4 | 69 | -8.9% | ·
O=C(O)/C=C\c1ccccc1Oc1cccc(Cl)c1 | -8% | 0.1 | 0.2 | 20 | · | -10%
CCOC(=O)C1=C(c2ccccc2)N2CCS(=O)(=O)N=C2S1 | 11% | -0.3 | -2.8 | 5 | -0.6% | -4%
CCc1ccc(S(=O)(=O)c2cn(Cc3ccccc3)c3cc(F)c(F)cc3c2=O)cc1 | · | 0.4 | · | -15 | -2.5% | ·
CCOc1cc(C=O)cc(N=Nc2cccc([N+](=O)[O-])c2)c1O | ? | 0.0 | -3.8 | -5 | · | -53%[inhibitor]
O=C(O)CCN1CCc2ccccc2C1c1ccncc1 (stereo unspecified) | 6% | 0.5 | -1.1 | -4 | -18% | 0%
CC(C)COc1ccc2[nH]c3c(c2c1)CCCC3=O | 9% | 0.4 | 3.0 | 7 | ? | 16%
COP(=O)(OC)C(Nc1ccc(C)cc1)c1ccc([N+](=O)[O-])cc1 (stereo unspecified) | 10% | 1.2 | -1.9 | 2 | -0.5% | 6%[15.4 µM]
O=C(CSc1nc2c(oc3ccccc32)c(=O)[nH]1)Nc1cccc(Cl)c1 | · | 1.8 | · | 23 | -5.3% | ·
CCCc1nnc(NS(=O)(=O)c2ccc(C)cc2)o1 | 6% | 0.9 | · | 16 | -1.7% | -14%
COc1ccc(/C=N/n2cnn(Cc3ccccc3Cl)c2=S)cc1 | -15% | 0.6 | 5.2 | 0 | · | -4%
Cc1cccc(NC(=O)Cn2nnc(C(=O)NCc3cccs3)c2N)c1 | · | -0.4 | · | -7 | 1.5% | ·
Cc1cc(C)cc(C(=O)OCC(=O)Nc2ncccn2)c1 | -2% | -0.1 | · | -5 | -6.6% | -1%
CCNC(=O)CC1C(=O)N(c2ccc(F)cc2)C(=O)N1Cc1ccccn1 (stereo unspecified) | -3% | 1.6 | 8.3 | 50 | -1.1% | ?
O=S1(=O)N=C(N(CCO)/N=C/c2ccncc2)c2ccccc21 | 5% | -0.2 | 1.4 | -18 | · | -21%[15.4 µM]
COCCn1c(=S)[nH]c2cc(C(=O)N(CCO)Cc3ccccc3)ccc2c1=O | -9% | -0.3 | 0.4 | 10 | -1.3% | 2%
O=Cc1ccc(OCc2cn(CC(=O)c3ccc(O)cc3)nn2)cc1 | -3% | 0.4 | · | -5 | -7.0% | ·
Cc1cc(C(=O)CSc2nnc(CCC(N)=O)n2C)c(C)n1C1CC1 | 13% | -0.1 | · | -11 | -0.5% | -20%
O=C(O)/C=C/C(=O)Nc1cccc(C(F)(F)F)c1 | -11% | 0.5 | 4.0 | 5 | · | 12%[15.4 µM]
CCOc1ccc(N2C(=O)CC(SCc3nc4ccccc4[nH]3)C2=O)cc1 (stereo unspecified) | -9% | -0.5 | -0.1 | 0 | · | 8%[15.4 µM]
COC(=O)c1nc2n(n1)C(c1cc(OC)ccc1OC)C(C(=O)Nc1ccc(C)cc1C)=C(C)N2 (stereo unspecified) | · | 0.5 | · | 5 | -3.5% | ·
CC(C)(C)OC(=O)N1CCC(c2c(C(=O)NCc3ccccn3)cnn2-c2ccccc2Cl)CC1 | · | 1.2 | · | -5 | -0.3% | ·
CCOc1ccc(NC(=O)c2cccc3c(=O)c4c([nH]c23)CCCC4)cc1 | · | -0.8 | · | 1 | -2.7% | ·
O=C(NCc1ccccc1)C1CCCN(C(=O)c2ccc(F)cc2)C1 (stereo unspecified) | 12% | -0.1 | · | 11 | -3.5% | 21%
